B2AR ag: human beta-2 adrenergic receptor agonism by FAP. P07550. 340,000 tested, 0.43% active. Am2.2-beta2AR cells, FAP receptor internalization, flow cytometry; reference of the scale not given here. response, % (concentration not given with the values);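 active = response above a set limit, near 3 SD of response in nonfluorescent compounds, cut at about 42% in these data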;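 also: stock transfer was 100 nL into about 11 µL; a reference agonist was the positive control; negative values mostly stem from fluorescent compounds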
Target sequence (P07550 whole entry, looked up): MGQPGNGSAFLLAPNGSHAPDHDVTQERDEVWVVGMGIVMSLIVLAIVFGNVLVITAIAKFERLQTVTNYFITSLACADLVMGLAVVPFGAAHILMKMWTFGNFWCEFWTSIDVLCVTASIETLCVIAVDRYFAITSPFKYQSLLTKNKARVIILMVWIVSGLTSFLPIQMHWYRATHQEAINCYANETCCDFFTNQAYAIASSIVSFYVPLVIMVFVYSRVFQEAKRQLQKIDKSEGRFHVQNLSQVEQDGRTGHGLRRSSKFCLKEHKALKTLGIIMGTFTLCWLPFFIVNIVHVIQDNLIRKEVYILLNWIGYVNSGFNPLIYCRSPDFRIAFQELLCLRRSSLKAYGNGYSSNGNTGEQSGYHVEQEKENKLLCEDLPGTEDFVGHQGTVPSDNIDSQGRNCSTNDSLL
HNF4A DNA FP: change in binding of human HNF4 alpha to DNA | P41235 | HNF4a-FITC DNA binding, fluorescence polarization, 1 h | activity change, % at 10 µM | 360,000 tested, 0.3% active | AID 1224865; in the data active = activity change above about 30%, passing the limit was not always enough;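 also: controls were the assay level and a saturating level of protein; the project sought stronger binding though the title names inhibitors; some compounds called inactive have numbers as strong as hits; positive values seem to mean higher polarization but the record does not say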
Target sequence (P41235 whole entry, looked up): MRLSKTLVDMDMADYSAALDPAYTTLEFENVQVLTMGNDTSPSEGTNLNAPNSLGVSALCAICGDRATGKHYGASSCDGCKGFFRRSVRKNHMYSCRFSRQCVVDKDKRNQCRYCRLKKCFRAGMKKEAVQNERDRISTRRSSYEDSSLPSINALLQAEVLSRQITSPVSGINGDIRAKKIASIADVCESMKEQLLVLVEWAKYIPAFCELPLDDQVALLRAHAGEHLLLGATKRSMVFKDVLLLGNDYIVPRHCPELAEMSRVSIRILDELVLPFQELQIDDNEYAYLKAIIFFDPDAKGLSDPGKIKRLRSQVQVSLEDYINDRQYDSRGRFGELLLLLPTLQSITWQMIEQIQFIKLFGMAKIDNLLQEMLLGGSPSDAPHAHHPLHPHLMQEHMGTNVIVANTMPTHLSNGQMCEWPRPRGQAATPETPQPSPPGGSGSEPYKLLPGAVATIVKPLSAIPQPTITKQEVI
ALR H2O2 inh: human ALR oxidase inhibition via reduced H2O2 | purified ALR, DTT oxidation, H2O2 HRP-luminol luminescence | P55789 | inhibition, % (no concentration beside the values) | 290,000 tested, 3.8% active;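 active = mean and each replicate at 75% or more; inconclusive = only one of the two met; inactive = neither met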;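 also: stock transfer was 7.5 nL into about 7.5 µL; 0% = neutral wells and 100% = wells with inactivated enzyme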
Target sequence (P55789 whole entry, looked up): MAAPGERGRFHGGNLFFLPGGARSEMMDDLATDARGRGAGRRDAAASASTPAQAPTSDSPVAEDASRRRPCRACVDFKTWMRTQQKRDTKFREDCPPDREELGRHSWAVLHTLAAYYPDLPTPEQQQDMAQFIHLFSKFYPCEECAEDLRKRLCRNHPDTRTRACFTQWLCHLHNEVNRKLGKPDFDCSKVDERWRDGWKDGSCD
RanGTP-Impb inh: disruptors of Ran-importin-beta complex formation – biochemical, FRET, CFP-Ran, YFP-importin-beta, homogeneous, primary screen | 300,000 tested, 1.1% active | cell-free CFP-Ran/YFP-importin-beta FRET ratio | inhibition, % (concentration not given with the values) | AID 2216;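 active = most replicates above 15%; inconclusive = exactly half above 15%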;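 also: 0% = DMSO wells and 100% = Ran loaded with GDP instead of GTP; wells of about 40 µL received 100 nL stock; the first replicate is given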
LANA-H2B inh: blocks KSHV LANA binding to histone H2A/H2B; inhibition, % (concentration not given with the values); 320,000 tested, 0.6% active; cell-free LANA-H2A/H2B peptide, fluorescence polarization; AID 2629; in the data active = inhibition mostly above about 10%, no sharp cut-off; inactive = mostly below about 6.7%;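 also: stock transfer was 7.5 nL into about 10 µL; 0% = median of vehicle wells and 100% = median of positive control wells; one replicate is shown; the record names a cut of 25% in any replicate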
Calb FLC: C. albicans growth modulation with fluconazole; C. albicans CaCi-2 (fluconazole-resistant clinical isolate) + fluconazole, Alamar Blue growth, 48 h; growth inhibition, % (no concentration beside the values); 300,000 tested, 0.57% active; AID 1979;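 active = most replicates above 75%; inconclusive = exactly half above 75%; inactive = most below 75%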;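 also: all wells also contain fluconazole at 8 µg/ml as a sub-toxic cotreatment; 0% = median of DMSO wells and 100% = median of geldanamycin control wells; wells of about 8 µL received 7.5 nL stock; the first replicate is given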
Vif A3G: inhibitors of Vif binding to APOBEC3G peptide, primary screen, biochemical, TR-FRET, GST-Vif 1-94, biotin-A3G peptide, dose response retest (AID 1117319). one-dose inhibition, %; IC50 in µM for titrated hits. 260,000 tested, 0.57% active. TR-FRET GST-Vif / biotin-A3G peptide binding; higher % means a stronger effect; test concentration not given here; strong numbers were not always called active;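 active = above the screen mean plus three standard deviations and confirmed in dose response; inconclusive = results disagree or hit not tested in dose response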;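 also: Vif residues 1-94 fused to GST binding biotinylated APOBEC3G peptide 110-148; 0% = full assay without inhibitor and 100% = GST in place of GST-Vif; retest series ran down from 100 µM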
Active calls of the source: *; & = joins results of further samples.

Preview:
How did CCN(c1ccc(NC(=O)CN2C(=O)NC3(CCOc4ccccc43)C2=O)cc1)C(C)C (configuration not stated) do in these assays?
B2AR ag: -6; HNF4A DNA FP: -3.0; RanGTP-Impb inh: 0.2; LANA-H2B inh: -1.6; Calb FLC: -3; Vif A3G: 22%

How did COc1ccc(OC)c(S(=O)(=O)CC(O)CS(=O)(=O)c2ccccc2)c1 (configuration not stated) do in these assays?
B2AR ag: -5; HNF4A DNA FP: 0.7; ALR H2O2 inh: -2; RanGTP-Impb inh: inconclusive; LANA-H2B inh: 0.0; Calb FLC: 6

All compounds of this part, repeating the preview:
How did CCN(c1ccc(NC(=O)CN2C(=O)NC3(CCOc4ccccc43)C2=O)cc1)C(C)C (configuration not stated) do in these assays?
B2AR ag: -6; HNF4A DNA FP: -3.0; RanGTP-Impb inh: 0.2; LANA-H2B inh: -1.6; Calb FLC: -3; Vif A3G: 22%

How did COc1ccc(OC)c(S(=O)(=O)CC(O)CS(=O)(=O)c2ccccc2)c1 (configuration not stated) do in these assays?
B2AR ag: -5; HNF4A DNA FP: 0.7; ALR H2O2 inh: -2; RanGTP-Impb inh: inconclusive; LANA-H2B inh: 0.0; Calb FLC: 6

How did Cc1ccc(C2CC(C(F)(F)F)n3nc(C(=O)NCc4c(C)nn(C)c4C)c(Cl)c3N2)cc1 (configuration not stated) do in these assays?
B2AR ag: 3; HNF4A DNA FP: 7.1; ALR H2O2 inh: -9; RanGTP-Impb inh: 5.0; LANA-H2B inh: 1.5; Calb FLC: 36; Vif A3G: 4%&2%

Results for O=C(Nc1ccc2[nH]c(=O)[nH]c2c1)c1cccc([N+](=O)[O-])c1 ?
B2AR ag: 2; HNF4A DNA FP: -2.2; ALR H2O2 inh: 0; RanGTP-Impb inh: -2.6; LANA-H2B inh: 5.2; Calb FLC: 7; Vif A3G: -5%

Results for c1cncc(-c2ccnc3ncnn23)c1 ?
B2AR ag: -5; HNF4A DNA FP: 0.2; ALR H2O2 inh: 0; RanGTP-Impb inh: 0.0; LANA-H2B inh: 2.8; Calb FLC: -19; Vif A3G: 1%

How did O=C(NCC1OCCCN1S(=O)(=O)c1ccc(F)cc1)C(=O)NC1CCCC1 (configuration not stated) do in these assays?
B2AR ag: 2; HNF4A DNA FP: 1.7; ALR H2O2 inh: 2; RanGTP-Impb inh: 0.0; LANA-H2B inh: -0.3; Calb FLC: 11

Results for CC(=O)c1cn(C(=O)c2ccc(Cl)cc2)c2ccccc12 ?
B2AR ag: -6; HNF4A DNA FP: -3.2; ALR H2O2 inh: -1; RanGTP-Impb inh: -4.5; LANA-H2B inh: 5.9; Calb FLC: -1; Vif A3G: -3%

Results for Cc1ccc(N(CC(=O)NCc2ccc3c(c2)OCO3)C(=O)c2csnn2)cc1 ?
B2AR ag: 6; HNF4A DNA FP: 2.5; ALR H2O2 inh: -19; RanGTP-Impb inh: 0.0; LANA-H2B inh: 0.7; Calb FLC: -19

Results for CCCCn1c(O)c(N=NC(=O)c2ccncc2)c2cc(Br)ccc21 ?
B2AR ag: 3; HNF4A DNA FP: 2.8; ALR H2O2 inh: 2; RanGTP-Impb inh: -2.0; LANA-H2B inh: -2.9; Calb FLC: 4; Vif A3G: 1%

What do the screens show for `COc1ccc(-c2noc(N3CCC(C(=O)Nc4ccc(F)cc4)CC3)n2)cc1`?
B2AR ag: -14; HNF4A DNA FP: 0.4; ALR H2O2 inh: -6; RanGTP-Impb inh: -0.6; LANA-H2B inh: -1.7; Calb FLC: -7

Results for CCn1c(SCC(=O)NC2CC2)nnc1-c1ccccn1 ?
B2AR ag: -6; HNF4A DNA FP: 1.1; ALR H2O2 inh: -3; RanGTP-Impb inh: 5.0; LANA-H2B inh: 9.3; Calb FLC: -2; Vif A3G: -4%

What do the screens show for `Cc1ccc(S(=O)(=O)NNC(=O)/C=C/c2cccc(F)c2)cc1`?
B2AR ag: 5; HNF4A DNA FP: 1.4; RanGTP-Impb inh: 1.0; LANA-H2B inh: -1.3; Calb FLC: -6; Vif A3G: -7%

How did O=C(CSc1nnc(CNC(=O)c2cccs2)o1)NCC1CCCO1 (configuration not stated) do in these assays?
B2AR ag: 2; HNF4A DNA FP: 3.9; ALR H2O2 inh: -10; RanGTP-Impb inh: 5.6; LANA-H2B inh: 0.2; Calb FLC: 11; Vif A3G: 8%

How did COc1ccc(NC(=O)NC2(C)CCS(=O)(=O)C2)cc1 (configuration not stated) do in these assays?
B2AR ag: 4; HNF4A DNA FP: 6.0; RanGTP-Impb inh: -0.5; Calb FLC: -4

What do the screens show for `Cc1oc(C(C)(C)C)cc1C(=O)NCc1ccc2c(c1)OCO2`?
B2AR ag: -2; HNF4A DNA FP: -5.5; ALR H2O2 inh: 0; RanGTP-Impb inh: 0.4; LANA-H2B inh: 5.8; Calb FLC: -2

How did CN1C[C@@H]2[C@@H]3C(=O)N(Cc4ccccc4)C(=O)[C@@H]3[C@](C)(C1=O)N2C(=O)c1ccc(Cl)cc1 do in these assays?
B2AR ag: -3; HNF4A DNA FP: -1.8; ALR H2O2 inh: -11; LANA-H2B inh: 1.0

What do the screens show for `O=C(C1=C[C@H](c2ccccc2)C[C@H](OCCCCO)O1)N1CCN(Cc2ccc3c(c2)OCO3)CC1`?
B2AR ag: -1; HNF4A DNA FP: 0.7; ALR H2O2 inh: 3; RanGTP-Impb inh: -1.6; LANA-H2B inh: -3.6; Calb FLC: -12

Results for Cc1ccc(Cn2c(Sc3nnc(C)s3)nc3c2c(=O)[nH]c(=O)n3C)cc1 ?
B2AR ag: -2; HNF4A DNA FP: 0.2; ALR H2O2 inh: 15; RanGTP-Impb inh: 11; LANA-H2B inh: 1.6; Calb FLC: 0; Vif A3G: 11%

How did Cc1c(C(=S)Nc2ccccc2)cnn1-c1ccc([N+](=O)[O-])cc1 do in these assays?
B2AR ag: 1; HNF4A DNA FP: -2.1; RanGTP-Impb inh: -1.4; LANA-H2B inh: 2.0; Calb FLC: 15; Vif A3G: 15%

Results for COCC(=O)Nc1cc(Cl)c(OC)cc1OC ?
B2AR ag: 2; HNF4A DNA FP: -1.9; ALR H2O2 inh: -7; RanGTP-Impb inh: inconclusive; LANA-H2B inh: -4.4; Calb FLC: 2; Vif A3G: 2%

What do the screens show for `CCOC(=O)Nc1ccc2c(c1)N(C(=O)N(C)C)c1ccccc1CC2`?
B2AR ag: -4; HNF4A DNA FP: 1.4; ALR H2O2 inh: -20; RanGTP-Impb inh: -5.0; LANA-H2B inh: -2.9; Calb FLC: 1; Vif A3G: 3%

Results for CC(OC1=CC(=O)CCC1)C(=O)c1ccccc1 (configuration not stated) ?
B2AR ag: -14; HNF4A DNA FP: 3.8; ALR H2O2 inh: -15; RanGTP-Impb inh: -1.4; LANA-H2B inh: 1.7; Calb FLC: 18; Vif A3G: 11%

What do the screens show for `COc1ccc2nc(NC(=O)c3cccs3)sc2c1`?
B2AR ag: -7; HNF4A DNA FP: 0.5; ALR H2O2 inh: 1; RanGTP-Impb inh: -1.9; LANA-H2B inh: -6.5; Calb FLC: 0

What do the screens show for `O=[N+]([O-])c1ccccc1/C=C/C=N/Nc1ccc(S(=O)(=O)Nc2ccc(Cl)cc2)cc1[N+](=O)[O-]`?
B2AR ag: 0; HNF4A DNA FP: -0.1; ALR H2O2 inh: -3; RanGTP-Impb inh: -1.0; LANA-H2B inh: 4.4; Calb FLC: 11; Vif A3G: -3%

Results for CC[C@@]1(C(=O)OC)N[C@H](CN(C)C(=O)c2ccc(C)cc2)[C@@H]2C(=O)N(Cc3ccccc3)C(=O)[C@@H]21 ?
B2AR ag: -2; HNF4A DNA FP: -1.7; Vif A3G: 1%

Results for C=CCC1[C@H](C)[C@H]2[C@@H]3CC[C@@H](C3)[C@H]2CN1S(=O)(=O)c1ccc(C)cc1 (some centres not stated) ?
B2AR ag: 2; HNF4A DNA FP: -0.1; Vif A3G: -3%

How did COc1ccccc1CNC(=O)c1ccc(NS(=O)(=O)c2cccs2)cc1 do in these assays?
B2AR ag: 5; HNF4A DNA FP: 3.9; ALR H2O2 inh: -32; RanGTP-Impb inh: inconclusive; LANA-H2B inh: -0.3; Calb FLC: 8

How did CC(=O)NCCNc1nc2c(-c3cccc(C(F)(F)F)c3)nnn2c2ccccc12 do in these assays?
B2AR ag: 0; HNF4A DNA FP: 1.6; ALR H2O2 inh: -4; RanGTP-Impb inh: -0.4; LANA-H2B inh: -3.4; Calb FLC: -9; Vif A3G: -60%

Results for CCS(=O)(=O)c1ccc2oc(Nc3cccc(OC)c3)nc2c1 ?
B2AR ag: 18; HNF4A DNA FP: 1.6; ALR H2O2 inh: 97*; RanGTP-Impb inh: -6.7; LANA-H2B inh: 0.0; Calb FLC: 26; Vif A3G: >100µM*

What do the screens show for `CC(=O)c1cccc(CN2CCCC(C(=O)c3ccc4c(c3)OCO4)C2)c1` (configuration not stated)?
B2AR ag: -3; HNF4A DNA FP: -2.4; ALR H2O2 inh: -6; RanGTP-Impb inh: 0.9; LANA-H2B inh: -1.1; Calb FLC: 11

How did CCCCNC(=O)O[C@@H]1C[C@H]2CCCC(=O)N3CC[C@@H](C1)[C@@H]23 do in these assays?
B2AR ag: -5; HNF4A DNA FP: 5.1; ALR H2O2 inh: -14; RanGTP-Impb inh: -2.6; LANA-H2B inh: 1.0; Calb FLC: -9

Results for Fc1ccc(Nc2c3c(nc4ccccc24)CCC3)cc1 ?
B2AR ag: -10; HNF4A DNA FP: -4.1; ALR H2O2 inh: 95*; RanGTP-Impb inh: 2.2; LANA-H2B inh: -0.1; Calb FLC: 49; Vif A3G: -5%

What do the screens show for `Cn1cnnc1SCC(=O)Nc1ccccc1C(=O)NC1CCCC1`?
B2AR ag: 5; HNF4A DNA FP: 3.5; ALR H2O2 inh: 2; RanGTP-Impb inh: 7.2; LANA-H2B inh: -1.9; Calb FLC: 1; Vif A3G: 7%

Results for CC(=O)Nc1ccc(-c2nc3ccccc3o2)cc1 ?
B2AR ag: -5; HNF4A DNA FP: 19; ALR H2O2 inh: -1; RanGTP-Impb inh: -2.1; LANA-H2B inh: -5.2; Calb FLC: -13

What do the screens show for `COc1cccc(NC(=O)CSc2c3c(nc4ccccc24)CCCC3)c1`?
B2AR ag: 12; HNF4A DNA FP: 3.5; ALR H2O2 inh: 99*; RanGTP-Impb inh: 3.2; LANA-H2B inh: 1.7; Calb FLC: 18; Vif A3G: 6%

How did Cc1ccc(NC(=O)C(c2ccccc2)c2ccccc2)c(O)c1 do in these assays?
B2AR ag: 48*; HNF4A DNA FP: -0.5; ALR H2O2 inh: 8; RanGTP-Impb inh: 5.2; LANA-H2B inh: -0.1; Calb FLC: 6

What do the screens show for `C/C(=N\NC(=O)Cc1c(F)cccc1Cl)c1cccnc1`?
B2AR ag: -12; HNF4A DNA FP: 1.7; ALR H2O2 inh: -21; RanGTP-Impb inh: 1.6; LANA-H2B inh: -2.9; Calb FLC: -4

How did COc1ccc(CN(C)C(=O)Cn2cnc3c(NCc4ccccc4)ncnc32)cc1OC do in these assays?
B2AR ag: 6; HNF4A DNA FP: 2.9; Vif A3G: 11%

Results for CN1C(=O)/C(=C/c2ccccc2OCc2ccccc2F)NC1=S ?
B2AR ag: -11; HNF4A DNA FP: 0.6; ALR H2O2 inh: -7; RanGTP-Impb inh: 2.3; LANA-H2B inh: -5.1; Calb FLC: 3; Vif A3G: 2%

Results for COc1ccc(OCCN2CCN(C(=O)c3ccc(OC(F)F)c(OC)c3)CC2)cc1 ?
B2AR ag: 1; HNF4A DNA FP: 2.0; ALR H2O2 inh: -4; RanGTP-Impb inh: -3.1; LANA-H2B inh: 6.5; Calb FLC: 15

Results for CCC(C)Nc1nc(-c2ccccn2)nc2ccccc12 (configuration not stated) ?
B2AR ag: -8; HNF4A DNA FP: -3.7; ALR H2O2 inh: -1; RanGTP-Impb inh: 4.7; LANA-H2B inh: -4.7; Calb FLC: -5

Screening data: PubChem BioAssay, several laboratories
